Six1-Eya2 blk: blocks human Six1 binding to Eya2; Q15475+O00167; 360,000 compounds, 0.56% hits; activity change, % (concentration not given with the values); AlphaScreen GST-Six1/His-Eya2 binding, biochemical; active compounds read low; control for the full effect not named in the record; in the data active = activity change below about -65%; inconclusive = about -30% to -65%; inactive = above about -30%
Target sequence (O00167 whole entry, looked up): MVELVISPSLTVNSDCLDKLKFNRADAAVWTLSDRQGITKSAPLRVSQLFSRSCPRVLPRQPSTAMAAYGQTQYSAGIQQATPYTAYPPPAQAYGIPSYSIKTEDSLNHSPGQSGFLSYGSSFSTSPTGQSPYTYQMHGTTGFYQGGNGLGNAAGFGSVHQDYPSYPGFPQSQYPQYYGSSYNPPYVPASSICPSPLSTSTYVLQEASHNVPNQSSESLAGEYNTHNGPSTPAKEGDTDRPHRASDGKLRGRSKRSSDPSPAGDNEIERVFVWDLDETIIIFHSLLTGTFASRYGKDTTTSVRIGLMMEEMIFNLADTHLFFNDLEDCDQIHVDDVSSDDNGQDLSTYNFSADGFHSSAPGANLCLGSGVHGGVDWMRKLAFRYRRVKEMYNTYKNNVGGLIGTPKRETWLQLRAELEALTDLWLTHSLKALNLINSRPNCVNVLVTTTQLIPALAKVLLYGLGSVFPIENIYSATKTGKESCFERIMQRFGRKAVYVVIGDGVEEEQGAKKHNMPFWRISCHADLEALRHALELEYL
Target sequence (Q15475 whole entry, looked up): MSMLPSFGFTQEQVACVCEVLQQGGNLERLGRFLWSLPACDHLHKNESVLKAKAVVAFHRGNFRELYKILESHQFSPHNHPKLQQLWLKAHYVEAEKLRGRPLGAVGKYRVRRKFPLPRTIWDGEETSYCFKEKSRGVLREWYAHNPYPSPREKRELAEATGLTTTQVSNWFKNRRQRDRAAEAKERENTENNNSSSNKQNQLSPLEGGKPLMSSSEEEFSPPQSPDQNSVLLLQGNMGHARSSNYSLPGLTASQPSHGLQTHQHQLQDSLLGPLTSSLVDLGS
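AlphaScreen luminescence read after one hour at 37 °C in darkness. Pin-transferred compounds met GST-Six1 and His-Eya2 protein (5X stock 250 nM/500 nM) plus glutathione donor and Ni-chelate acceptor beads (5X, 50 ug/mL).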
Starred values were filed as active, the others as inactive. On the % scale 0 is the no-effect control and ±100 the full control effect. Only part of the results is shown. The share of hits here may be higher or lower than overall.

| smiles | Six1-Eya2 blk |
| --- | --- |
| CCOC1=C2CN(S(=O)(=O)c3ccc(C)cc3)C(c3cccc(Cl)c3)CC2NC(c2ccccc2)C1 (stereo not given) | -2 |
| COCCN1C(=O)CSCC1(C)C(=O)Nc1c(C)cccc1C (stereo not given) | 3 |
| N#Cc1ccc(C(C(=O)NCc2ccccc2)n2c(=O)c(-c3cc4ccccc4[nH]3)nc3ccccc32)cc1 (stereo not given) | 58 |
| O=C1Nc2ccccc2C(=O)N(Cc2ccccc2)C1C(=O)NC1CC1 (stereo not given) | 3 |
| Nc1nc2ncccn2c1-c1ccc(C(F)(F)F)cc1 | -17 |
| O=C1N(c2ccccc2)c2ccccc2[C@]12C[C@H](O)CO2 | 4 |
| O=[N+]([O-])c1ccc(Br)c(CN2CCN(c3ncc(Cc4ccccc4)cn3)CC2)c1 | -29 |
| COc1ccccc1N1CCN(C2C(=O)Nc3ccccc3-n3nnnc32)CC1 (stereo not given) | 4 |
| Cc1ccc(N2CCN(C(C(=O)Nc3c(C)cccc3C)c3cccc(F)c3)CC2)cc1 (stereo not given) | 1 |
| CCCCCNC(=O)C(c1ccncc1)n1c(=O)c(-c2cc3ccccc3[nH]2)nc2ccccc21 (stereo not given) | 15 |
| COC(=O)C1(C(=O)OC)C[C@H](/C=C/c2ccccc2)N(Cc2ccccc2OC)[C@@H]1c1ccccc1 | -1 |
| COC(=O)C1=CN(c2ccc(Oc3ccccc3)cc2)C(N)=C(C#N)C1c1cccc(OC)c1OC (stereo not given) | -14 |
| CCCCCCCCN1C(=O)[C@H](CC(=O)NCC23CC4CC(CC(C4)C2)C3)C[C@@]2(C(=O)OC)CC(C)(C)CC=C12 | 10 |
| O=C(NC1CCCCC1)c1nc(-c2c(F)cccc2F)oc1-c1ccccc1 | -3 |
| CCOC(=O)[C@]12CCCC=C1N(Cc1ccccc1)C(=O)[C@H](CC(=O)NCCCN1CCCC1=O)C2 | 0 |
| CO[C@H]1CN(C)C(=O)c2cc(NS(=O)(=O)c3ccccc3)ccc2OC[C@@H](C)N(Cc2ccccn2)C[C@@H]1C | -9 |
| CC(C)NC(=O)C1(C)CSCC(=O)N1CCCn1ccnc1 (stereo not given) | -1 |
| O=c1c(-c2cccs2)nc2ccccc2n1C(CCc1ccccc1)c1nc2ccccc2[nH]1 (stereo not given) | 14 |
| CCC(C(=O)NCc1ccccc1)n1c(CSCCOc2ccccc2)nc2ccccc21 (stereo not given) | -3 |
| COC(=O)[C@]12CCCCC=C1N(Cc1ccc3c(c1)OCO3)C(=O)[C@H](CC(=O)N1CCOCC1)C2 | 8 |
| CC(C(=O)NC(C)(C)C)n1c(-c2ccccc2)nc2ccccc21 (stereo not given) | 0 |
| COc1ccc(N2CCN(C3C(=O)Nc4ccccc4-n4nnnc43)CC2)cc1 (stereo not given) | -7 |
| O=C(NCc1ccccc1)C(C1CC1)n1c(=O)c(-c2ccco2)nc2ccccc21 (stereo not given) | -7 |
| CC(C)NC(=O)C1C(c2ccc(C(F)(F)F)cc2)=Nc2ccccc2N1C(=O)c1ccco1 (stereo not given) | 8 |
| CC(C)(C)C(c1nc2ccccc2[nH]1)n1c(-c2cccc(S(C)(=O)=O)c2)nc2ccccc21 (stereo not given) | -2 |

| smiles | Six1-Eya2 blk |
| --- | --- |
| CCCCNC(=O)C[C@@H]1C[C@@]2(C(=O)OC)CCCCC=C2N(Cc2ccc3c(c2)OCO3)C1=O | -6 |
| Cc1cccc(C)c1NC(=O)C1(C)CSCC(=O)N1CCc1c[nH]c2ccccc12 (stereo not given) | -8 |
| COc1ccc(NC(=O)C(c2ccc(C#N)cc2)n2c(=O)c(-c3ccco3)nc3ccccc32)cc1 (stereo not given) | -17 |
| COC(=O)[C@@]12C[C@@H](CC(=O)NCCc3ccccc3OC)C(=O)N(Cc3ccccc3)C1=CCC(C)(C)C2 | -8 |
| O=C(NC1CCCC1)C(c1ccccc1)n1c(CSCCOc2ccccc2)nc2ccccc21 (stereo not given) | 1 |
| O=C1Nc2ccccc2-n2nnnc2C1N1CCCN(Cc2ccc(F)cc2)CC1 (stereo not given) | 2 |
| CC(C)NC(=O)C1(C)CN(S(C)(=O)=O)CC(=O)N1Cc1cccc(F)c1 (stereo not given) | 8 |
| COC(=O)[C@@]12C[C@@H](CC(=O)N3CCSCC3)C(=O)N(Cc3ccc4c(c3)OCO4)C1=CCC(C)(C)C2 | -6 |
| COc1ccccc1C(C(=O)c1ccccc1)c1ccc2ccccc2c1 (stereo not given) | 4 |
| Oc1ccc(Cl)c(CN2CCN(c3ncc(Cc4ccccc4)cn3)CC2)c1 | -15 |
| COc1ccc(C2=Nc3ccccc3N(C(=O)c3ccncc3)C2C(=O)NC(C)C)cc1 (stereo not given) | -3 |
| CCOC(=O)[C@]12CCCC=C1N(CCc1ccc(OC)c(OC)c1)C(=O)[C@H](CC(=O)NCc1ccc(C)o1)C2 | -12 |
| CCNC(=O)C[C@@H]1C=C[C@@H](NS(=O)(=O)c2ccc(F)cc2)[C@@H](CO)O1 | 4 |
| COc1ccccc1OCCn1nc2ccccc2c1OC | 7 |
| COc1ccc(C(C(=O)Nc2ccc(F)cc2)N2CCN(c3ccncc3)CC2)cc1 (stereo not given) | 2 |
| COC(=O)C[C@@H]1C=C[C@H](NC(=O)c2ccccc2)[C@@H](CO)O1 | 7 |
| CC(C)(C)NC(=O)C(c1ccc(C#N)cc1)n1c(=O)c(-c2ccccc2)nc2ccccc21 (stereo not given) | 1 |
| CN1C(=O)[C@@](O)(c2cn(C)c3ccccc23)c2cc(Br)ccc21 | -3 |
| CC(=O)C[C@@H]1OC2CCCCC2N1S(=O)(=O)c1ccc(C)cc1 (stereo not given in full) | 2 |
| CCCCOCCCNC(=O)C[C@@H]1C[C@@]2(C(=O)OC)CC(C)(C)CC=C2N(Cc2ccccc2)C1=O | -3 |
| CCCCCCCCN1C(=O)[C@H](CC(=O)NCCC(C)C)C[C@@]2(C(=O)OCC)CCC=C12 | -2 |
| CC(C)(C)NC(=O)C(c1ccc(-c2ccccc2)cc1)n1c(=O)c(-c2cc3ccccc3[nH]2)nc2ccccc21 (stereo not given) | 34 |
| CCOC(=O)CC1(CCc2ccccc2)Oc2ccccc2N1S(=O)(=O)c1ccc(C)cc1 (stereo not given) | 10 |
| Cc1cc(N2CCN(C(C(=O)NC3CCCC3)c3ccc(F)cc3)CC2)c2ccccc2n1 (stereo not given) | 3 |
| O=C(Nc1ccc2c(c1)OCCO2)C(c1ccccc1F)n1c(=O)c(-c2ccco2)nc2ccccc21 (stereo not given) | -8 |

Quoted at random: 5 records from the list
| smiles | Six1-Eya2 blk |
| --- | --- |
| CC(C)(C)NC(=O)C(c1ccc(-c2ccccc2)cc1)n1c(=O)c(-c2cc3ccccc3[nH]2)nc2ccccc21 (stereo not given) | 34 |
| CCNC(=O)C[C@@H]1C=C[C@@H](NS(=O)(=O)c2ccc(F)cc2)[C@@H](CO)O1 | 4 |
| Nc1nc2ncccn2c1-c1ccc(C(F)(F)F)cc1 | -17 |
| CCOC1=C2CN(S(=O)(=O)c3ccc(C)cc3)C(c3cccc(Cl)c3)CC2NC(c2ccccc2)C1 (stereo not given) | -2 |
| COC(=O)C1=CN(c2ccc(Oc3ccccc3)cc2)C(N)=C(C#N)C1c1cccc(OC)c1OC (stereo not given) | -14 |

Next section
| smiles | Six1-Eya2 blk |
| --- | --- |
| O=C(N[C@@H]1CC[C@@H](CCn2cc(-c3ccccc3)nn2)O[C@@H]1CO)c1cnccn1 | 5 |
| CSCc1cc(C(=O)NCCN2CCOCC2)c(N)s1 | -2 |
| CCOC(=O)[C@]12CCCC=C1N(CCC1=CCCCC1)C(=O)[C@H](CC(=O)N1CCOCC1)C2 | 9 |
| O=C(NC1CCCCC1)C(C1CC1)n1c(=O)c(-c2ccccc2)nc2ccccc21 (stereo not given) | 3 |
| O=C(NCc1ccccc1)C(c1ccco1)N1CCN(C(=O)C2CCCO2)CC1 (stereo not given) | 0 |
| COc1cc2c(cc1OCc1ccccc1)/C(=C/C(=O)OCc1ccccc1)OC2 | 12 |
| COC(=O)C[C@H]1C=C[C@@H](NC(=O)Cc2cccnc2)[C@@H](CO)O1 | 0 |
| Cc1ccc(-c2nc3ccccc3n2C(C(=O)NC(C)(C)C)C2CC2)cc1 (stereo not given) | -4 |
| CC(C)NC(=O)C1(C)CN(S(C)(=O)=O)CC(=O)N1CCc1ccccc1F (stereo not given) | 5 |
| CC(C(=O)NC(C)(C)C)n1c(C(c2ccccc2)c2ccccc2)nc2ccccc21 (stereo not given) | -7 |
| COCC(=O)N[C@H]1CC[C@@H](CC(=O)OC)O[C@@H]1CO | 5 |
| CC1(C(=O)NCc2ccccc2)CN(S(C)(=O)=O)CC(=O)N1C1CCN(Cc2ccccc2)CC1 (stereo not given) | 11 |
| O=c1c(-c2ccco2)nc2ccccc2n1C(CCc1ccccc1)c1nc2ccccc2[nH]1 (stereo not given) | -21 |
| C#CCn1c2ccccc2c(=O)n1CCOc1ccccc1OC | -1 |
| O=C(N[C@H]1CC[C@@H](CCNS(=O)(=O)c2ccccc2Cl)O[C@@H]1CO)c1ccccc1 | -5 |
| COC(=O)[C@@]12C[C@@H](CC(=O)NCc3cccs3)C(=O)N(CCc3ccc(OC)c(OC)c3)C1=CCC(C)(C)C2 | -3 |
| COc1ccc(C(=O)C[C@@H]2OC3CCCCC3N2S(=O)(=O)c2ccc(C)cc2)cc1OC (stereo not given in full) | -6 |
| Cc1ccccc1S(=O)(=O)NCC[C@@H]1CC[C@@H](NC(=O)C2CCCC2)[C@@H](CO)O1 | 3 |
| Cc1cccc(C)c1NC(=O)C(C1CC1)n1c(-c2ccc(C(F)(F)F)cc2)nc2ccccc21 (stereo not given) | 6 |
| O=C(C[C@@H]1C=C[C@@H](NC(=O)Nc2cccc(F)c2)[C@@H](CO)O1)NCC1CCCCC1 | 5 |
| O=C(C[C@@H]1C=C[C@H](NS(=O)(=O)c2ccccc2F)[C@@H](CO)O1)NCCCN1CCOCC1 | -3 |
| CCC(C(=O)NC(C)(C)C)n1c(-c2ccc(C)cc2)nc2ccccc21 (stereo not given) | 9 |
| COc1cc2c(cc1OC)/C(=C/C(C)=O)OC2 | -7 |
| COc1ncccc1C(=O)Nc1c(-c2ccccc2)[nH][nH]c1=O | -5 |
| CN1C(=O)C(c2cn(C)c3ccccc23)(c2cn(C)c3ccccc23)c2cc(Br)ccc21 | -21 |

Next section (five carried over from the part before).
| smiles | Six1-Eya2 blk |
| --- | --- |
| O=C(C[C@@H]1C=C[C@H](NS(=O)(=O)c2ccccc2F)[C@@H](CO)O1)NCCCN1CCOCC1 | -3 |
| CCC(C(=O)NC(C)(C)C)n1c(-c2ccc(C)cc2)nc2ccccc21 (stereo not given) | 9 |
| COc1cc2c(cc1OC)/C(=C/C(C)=O)OC2 | -7 |
| COc1ncccc1C(=O)Nc1c(-c2ccccc2)[nH][nH]c1=O | -5 |
| CN1C(=O)C(c2cn(C)c3ccccc23)(c2cn(C)c3ccccc23)c2cc(Br)ccc21 | -21 |
| COC(=O)C[C@@H]1CC[C@H](NS(=O)(=O)c2ccccc2F)[C@@H](CO)O1 | 2 |
| CCCCCNC(=O)C(c1ccc(C(F)(F)F)cc1)n1c(=O)c(-c2ccco2)nc2ccccc21 (stereo not given) | -12 |
| CCCCNC(=O)C1C(c2ccccc2)=Nc2ccccc2N1C(=O)c1ccc(C)cc1 (stereo not given) | -3 |
| CCOC(=O)c1noc2c1CCC2 | 6 |
| CC(C)(C)N1C(=O)c2ccccc2NC(=O)C1C(=O)NCCc1ccccc1F (stereo not given) | 9 |
| O=C(Nc1ccc2c(c1)OCCO2)C(C1CC1)n1c(=O)c(-c2ccco2)nc2ccccc21 (stereo not given) | -9 |
| Cc1ccc(S(=O)(=O)C[C@@H]2OC3CCCCC3N2S(=O)(=O)c2ccc(C)cc2)cc1 (stereo not given in full) | 4 |
| O=C(NCc1ccccc1)C1C(c2ccccc2)=Nc2ccccc2N1C(=O)c1cccnc1 (stereo not given) | -3 |
| COC(=O)[C@@]12C[C@@H](CC(=O)NCc3cccc4ccccc34)C(=O)N(Cc3cccc4ccccc34)C1=CCC(C)(C)C2 | -5 |
| COc1ccc(C(C(=O)Nc2ccc(F)cc2)N2CCN(CC(=O)N3CCCC3)CC2)cc1 (stereo not given) | 5 |
| O=C(C[C@@H]1CC[C@@H](NC(=O)Nc2cccc(F)c2)[C@@H](CO)O1)NCC1CCCCC1 | 7 |
| O=C(NCc1ccc2c(c1)OCO2)OCc1ccccc1 | 7 |
| COC(=O)[C@@]12C[C@@H](CC(=O)N3CCOCC3)C(=O)N(Cc3ccccc3)C1=CCC(C)(C)C2 | 8 |
| CCOC(=O)C1=CCC(c2cc3ccc(OC)cc3n2C(=O)OC(C)(C)C)NC1 (stereo not given) | -23 |
| COC(=O)/C=C1\OC(C2CC2)c2ccccc21 (stereo not given) | 10 |
| Cc1ccc(CN2C(=O)CN(S(C)(=O)=O)CC2(C)C(=O)NC(C)C)cc1 (stereo not given) | -2 |
| CCOC(=O)[C@]12CCCC=C1N(Cc1ccccc1)C(=O)[C@H](CC(=O)N1CCCC1)C2 | 11 |
| COC(=O)/C=C1\OCc2cc(C)ccc21 | 2 |
| COC(=O)C1C(=O)N(S(=O)(=O)c2ccc([N+](=O)[O-])cc2)c2ccccc21 (stereo not given) | 2 |
| Cc1cccc(C)c1NC(=O)C(c1ccncc1)N1CCN(CCN(C)C)CC1 (stereo not given) | 1 |
| Cc1ccc(S(=O)(=O)N2C(c3ccc(Cl)c(Cl)c3)CC=C(C(=O)O)C2c2ccc(Cl)cc2)cc1 (stereo not given) | -3 |
| O=C(C(=O)N1CCC(Cc2ccccc2)CC1)c1cccs1 | 10 |
| CC(C)(C)OC(=O)N1CCc2onc(-c3ccccc3[N+](=O)[O-])c2C1=O | -2 |
| CCOC(=O)N1CCN(C(=O)C[C@@H]2C[C@@]3(C(=O)OC)CC(C)(C)CC=C3N(Cc3ccco3)C2=O)CC1 | -2 |
| CO[C@@H]1CN(C)C(=O)c2ccc(NS(=O)(=O)c3c(C)noc3C)cc2OC[C@@H](C)NC[C@@H]1C | 0 |
| CC1(C(=O)Nc2ccc3c(c2)OCCO3)CN(S(C)(=O)=O)CC(=O)N1C1CCCCCC1 (stereo not given) | 2 |
| O=C(NCc1ccccc1)C(c1ccncc1)n1c(=O)c(-c2cc3ccccc3[nH]2)nc2ccccc21 (stereo not given) | 27 |
